Source: PubChem (several laboratories)
Beta cell apopt = blocks beta cell apoptosis | INS-1E cytokine-induced death, ATP luminescence, 48 h; percent of positive-control rescue, neutral wells zero | protection from apoptosis, % (no concentration beside the values) | actives 0.8% (n = 300,000) | AID 435005;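 active = all replicates at 75% or more, or half of them and the mean; inconclusive = half reach 75% but not the mean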;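 also: 0% = cytokine-treated negative control wells and 100% = positive control rescue; higher means more ATP so stronger rescue from cytokine killing; wells of about 40 µL received 100 nL stock; the first replicate is given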
A1 inh = inhibitors of the anti-apoptotic protein A1, read as caspase activation | MEF A1-2A-BIM cells, Caspase-Glo 3/7 luminescence, 3 h; percent of clofoctol response, vehicle zero | caspase activation, % (test concentration not listed) | actives 0.066% (n = 330,000);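 active = over half of replicate activation scores above 10%, or exactly half above 10 with the replicate mean above 10; inconclusive = replicate mean below 10 yet half the replicates above 10; inactive = over half of replicates below 10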;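 also: wells of about 30 µL received 50 nL stock; many hits fall short of the cut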
FGF22 binding = FGF22 (human) thermal shift binding | actives 1.5% (n = 340,000) | calls only at 9.99 µM | recombinant FGF22 thermal shift, SYPRO orange fluorescence; percent of sucrose octasulfate shift, DMSO zero | AID 651658 | Q9HCT0;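 active = melting point raised past a set limit in the mean and every replicate; inconclusive = no clear call; three in four hits are not shown here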
Target sequence (Q9HCT0 whole entry, looked up): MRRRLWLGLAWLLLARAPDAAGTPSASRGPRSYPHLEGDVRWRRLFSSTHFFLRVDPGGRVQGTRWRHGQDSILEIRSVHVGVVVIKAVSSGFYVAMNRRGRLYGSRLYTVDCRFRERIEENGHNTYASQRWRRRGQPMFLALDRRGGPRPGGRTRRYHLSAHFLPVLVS
T cruzi repl = blocks replication of Trypanosoma cruzi. actives 1.4% (n = 300,000). AID 1885. inhibition, % (concentration not given with the values). T. cruzi beta-gal in NIH3T3, luminescence, 90 h;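 active = mean inhibition across valid replicates above about 55%, limit read from the data; inconclusive = mean below that limit but half or more replicates reach it; inactive = mean below it, under half of replicates reach it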;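 also: signal also drops with host cell toxicity which is not excluded here; 0% = plate median of DMSO wells and 100% = zero luminescence signal; higher percent means less beta-gal luminescence so fewer parasites; stock transfer was 50 nL into about 50 µL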
E coli growth = E. coli growth inhibition; Escherichia coli growth, OD600, 23 h; hits give low values; OD600 absorbance (no concentration beside the values); actives 0.21% (n = 330,000); AID 1053175;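 active = OD600 absorbance below the run mean of sample wells minus 3.6 SD, in any replicate, cut at about 0.56 in these data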;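 also: stock transfer was 300 nL into about 60 µL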
UCH37 inh = inhibitors of human deubiquitinating enzyme UCH37; Q9Y5K5; purified proteasome/UCH37, Ub-AMC cleavage fluorescence; inhibition, % (no concentration beside the values); actives 0.33% (n = 330,000); AID 588478;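 active = mean of two replicates above 20%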;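 also: 0% = compound-free wells with enzyme and 100% = wells lacking proteasome; stock transfer was 100 nL into about 20 µL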
Target sequence (Q9Y5K5 whole entry, looked up): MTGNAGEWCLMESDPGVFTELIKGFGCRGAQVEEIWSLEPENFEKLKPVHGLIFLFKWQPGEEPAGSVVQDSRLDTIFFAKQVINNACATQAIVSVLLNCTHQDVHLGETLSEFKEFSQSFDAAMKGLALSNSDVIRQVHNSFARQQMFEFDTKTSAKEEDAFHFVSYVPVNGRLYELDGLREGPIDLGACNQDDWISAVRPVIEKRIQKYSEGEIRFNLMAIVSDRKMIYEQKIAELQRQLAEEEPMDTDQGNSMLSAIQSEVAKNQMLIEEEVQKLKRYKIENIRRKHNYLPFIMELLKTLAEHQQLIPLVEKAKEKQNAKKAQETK
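Signal – fluorescence, ex 355 nm, em 460 nm · System – Proteasome-bound UCH37 · Input – 0.15 nM proteasome as dispensed · Timing – 30 min preincubation with enzyme, 25 min cleavage at room temperature · Read-out basis – percent inhibition of cleavage signal versus uninhibited and no-proteasome wells · Medium – Tris-HCl pH 7.4 with ATP-MgCl2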
MLL AF4-AF9 inh = MLL-AF4/AF9 protein interaction inhibition. P42568. AlphaScreen, biotin-AF4 peptide binding to FLAG-AF9. inhibition, % at 10 µM. actives 0.47% (n = 350,000). AID 651704;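 active = every replicate reaching a set inhibition limit, whatever the replicate mean, cut at about 25% in these data; inconclusive = mean inhibition reaches that limit but some replicates miss it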;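 also: 0% = plate neutral control median and 100% = total signal loss; the record names both 10 and 1 µM as test concentration; the first replicate is given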
Target sequence (P42568 whole entry, looked up): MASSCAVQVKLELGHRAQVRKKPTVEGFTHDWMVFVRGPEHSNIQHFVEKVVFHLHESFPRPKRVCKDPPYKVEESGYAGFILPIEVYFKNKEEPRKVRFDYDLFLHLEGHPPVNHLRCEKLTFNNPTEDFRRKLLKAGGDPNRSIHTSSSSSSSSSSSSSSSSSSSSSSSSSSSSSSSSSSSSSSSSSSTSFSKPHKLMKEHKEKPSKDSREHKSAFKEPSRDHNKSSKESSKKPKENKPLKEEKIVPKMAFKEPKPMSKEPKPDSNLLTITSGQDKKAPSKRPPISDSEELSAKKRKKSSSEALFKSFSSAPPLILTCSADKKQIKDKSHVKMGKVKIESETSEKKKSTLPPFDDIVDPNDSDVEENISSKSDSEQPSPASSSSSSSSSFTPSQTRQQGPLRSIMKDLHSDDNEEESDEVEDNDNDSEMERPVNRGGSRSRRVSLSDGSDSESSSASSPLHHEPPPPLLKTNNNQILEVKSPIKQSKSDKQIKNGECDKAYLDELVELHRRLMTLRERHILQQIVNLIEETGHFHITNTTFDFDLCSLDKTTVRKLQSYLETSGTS
rRNA inh HTS = selective bacterial rRNA inhibition in E. coli; E. coli WT GFP vs humanized-ribosome RFP mutants, fluorescence, 24 h; hits give low values; DMSO median 0, no signal -100; GFP signal change (wild-type ribosome), % (no concentration beside the values); actives 1.6% (n = 350,000); AID 720706;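 active = significant combined selectivity score with lowered wild-type GFP, culture density cut under 30%, mutant RFP and density less affected; inactive = any of these conditions unmet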; also: one replicate is shown; some compounds called inactive have numbers as strong as hits
rRNA inh HTS OD600 = second read-out of rRNA inh HTS, no call of its own (marks repeat the call); OD600 change, %; measured here: OD600 growth;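 optical density of the mix in the first replicate; 0 = DMSO median and -100 = no signal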
rRNA inh HTS RFP = further read-out of rRNA inh HTS, marked with its call; RFP signal change, %; measured here: RFP humanized mutant strains;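 first replicate; 0 = DMSO median and -100 = no signal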
Active calls of the source: *; i = inactive; ? = inconclusive; · = not tested or not shown. Some of the compounds tested. The share of hits here may be higher or lower than overall.

SMILES	Beta cell apopt	A1 inh	FGF22 binding	T cruzi repl	E coli growth	UCH37 inh	MLL AF4-AF9 inh	rRNA inh HTS	rRNA inh HTS OD600	rRNA inh HTS RFP
COc1ccccc1NC(=O)C(C)OC(=O)c1ccc(-n2cnnn2)cc1 (centres undefined)	-6	0.1	i	-5	0.65	2.3	-1.6	-12	-11	1.2
O=C(C[n+]1cc(Br)cc2ccccc21)c1ccc(Cl)cc1	1	1.4	i	13	0.61	-1.6	3.2	-10	8	14
O=C(c1cc([N+](=O)[O-])ccc1N1CCOCC1)N1CCN(S(=O)(=O)c2ccc(F)cc2)CC1	·	-1.0	i	-8	·	·	0.6	-1	-1	1.6
O=C(OCC(=O)N1CCC(Cc2ccccc2)CC1)c1ccccc1F	-2	-0.7	i	·	0.66	-0.1	-0.4	-4	-6	-2.4
COCCn1c(N)c(N(Cc2ccccc2)C(=O)c2ccc3ccccc3c2)c(=O)[nH]c1=O	-3	0.0	i	-2	0.74	3.0	-5.1	4	6	0.5
O=C1CCCC(=O)C1=C1SCCS1	-6	0.5	·	7	0.66	12	·	·	·	·
N#C/C(=C\c1ccc(N2CCOCC2)o1)C(=O)NC1CCCCC1	-1	-0.5	i	24	0.63	30*	4.4	16	12	8.5
CCCCS(=O)(=O)N1CCC(C(=O)NCC2CCCO2)CC1 (centres undefined)	-5	-0.4	i	-8	0.68	1.1	-7.4	7	1	-0.2
CCOC(=O)/C(N=Nc1ccc(C(=O)O)cc1[N+](=O)[O-])=C(\C)O	1	-0.7	i	7	0.65	23*	-1.4	13	12	5.3
Cc1ccnc(N2C(=O)OC(C)(C)C2(C)O)c1 (centres undefined)	-2	-0.1	·	-17	0.66	0.7	·	·	·	·
Fc1ccc(NC(=S)Nc2cccc3ccccc23)cc1F	8	0.0	i	-9	0.65	3.3	1.9	-7	-9	0.3
C=CCn1c(=O)c2c3c(sc2n2c(Nc4ccc(OC)cc4)nnc12)CCCC3	-12	1.0	·	·	0.69	0.6	·	·	·	·
CC#CCN1c2ccccc2[C@]23C[C@@H](C(=O)OC)N(C(=O)c4ccc(Br)cc4)C2=NC(C(=O)OC)=C(C(=O)OC)[C@H]13	-5	-0.9	·	-2	·	1.1	·	·	·	·
Cc1ccc(C(=O)NNC(=S)NC(=O)c2ccc(Cl)cc2)cc1	19	1.3	·	-6	0.63	0.8	·	·	·	·
Cc1ccc(N(CCC#N)C(=O)CN2C(=O)NC(Cc3ccccc3)C2=O)cc1 (centres undefined)	0	-0.5	i	-17	0.69	3.3	0.9	18	11	0.2
Cc1cc(C)cc(-n2c(=O)c3ccccc3n(CC(=O)NCC3CCCO3)c2=O)c1 (centres undefined)	-1	0.6	i	1	0.71	-2.0	-3.4	4	9	-1.6
Cc1ccc(NC(=S)NC(=O)C2CC2)cc1Cl	4	0.6	i	·	0.7	-2.0	2.9	-44	-74	-5.3
CC(C)CNC(=O)c1ccccc1SCC(=O)NC12CC3CC(CC(C3)C1)C2	3	0.1	·	13	0.66	0.7	·	·	·	·
CCc1c(C)sc(NC(=O)OC)c1C(=O)N1CCCCC1	-4	0.2	·	-17	0.73	3.3	·	·	·	·
CCOc1ccccc1NC(=O)COC(=O)c1ccc(S(=O)(=O)N2CCCC2)cc1	·	·	i	·	0.71	2.1	-0.8	-4	11	-0.3
CCOC(=O)c1c(CN2CCCCC2C)oc2ccc(OC)cc12 (centres undefined)	9	1.4	·	36	0.72	-0.3	·	·	·	·
COc1cc(NC(=O)Cc2ccc([N+](=O)[O-])cc2)c(C(=O)O)cc1OC	3	1.7	i	3	0.73	1.0	2.7	9	7	-0.3
CCc1nc2ccccc2n1CCc1ccccc1	-4	0.5	i	-15	0.69	-0.1	1.9	-24*	18*	-1.3*
CCc1cc2c(=O)c(-c3nc4ccccc4n3C)coc2c(CN2CCCCC2C)c1O (centres undefined)	·	·	i	-6	0.68	-62	2.4	5	5	0.6
Cc1cccc(NCC(=O)N/N=C\c2ccccn2)c1	-2	0.0	·	5	·	·	-0.8	·	·	·
CCOC(=O)[C@H]1[C@H]2COc3cc(OC)ccc3[C@@H]2N2C(=O)CN(Cc3ccc(OC)cc3)C(=O)[C@@]12C	-1	-0.6	i	·	·	-1.7	1.3	-4	-5	-7.4
CCCCOC(=O)Cn1c(=O)c2c(nc3n2CCCCN3c2ccc(C)cc2)n(C)c1=O	10	-0.3	·	20	0.7	1.4	·	·	·	·
CCS(=O)(=O)N1CCN(c2ccc([N+](=O)[O-])c(NCc3cccnc3)c2)CC1	4	2.0	i	1	0.67	11	2.0	-19	-15	1.3
COc1ccc(CN2C(=O)CN=C2Nc2cc(C)ccc2C)cc1	2	0.4	·	-8	0.69	2.4	·	·	·	·
CC(=O)Nc1ccc(C(=O)OC2CCOC2=O)cc1 (centres undefined)	-2	-0.3	·	-9	0.73	-1.2	·	·	·	·
COc1ccc(S(=O)(=O)Nc2ccc(C(N)=O)cc2)cc1C(=O)N1CCCCCC1	-1	1.4	i	-4	0.69	0.4	-0.1	11	7	0.4
COc1ccc(N(CC(=O)NCc2cccs2)S(=O)(=O)c2cccnc2)cc1	-3	?	i	1	0.75	2.8	0.3	6	0	4.0
Cc1ccc(S(=O)(=O)N(C)C)cc1NC(=O)C1CCCCC1	-7	-0.3	i	5	0.69	-0.6	1.4	6	3	-2.5
CS(=O)(=O)N(CCc1ccccc1)CC(N)=O	-6	-0.4	·	-10	0.74	1.9	·	·	·	·
COc1ccccc1C1NC(=O)NC(C)=C1C(=O)OC1CCCCC1 (centres undefined)	·	0.5	i	14	0.74	1.9	9.0	2	6	0.3
CCOc1ccc(/C=N/NS(=O)(=O)c2ccc(C)cc2)cc1OC	-4	0.3	i	-1	·	·	1.6	4	5	-2.5
O=C(CCn1c(=O)sc2ccccc21)NCc1ccco1	·	-0.3	i	4	0.71	2.4	7.7	14	13	1.6
O=C(CCSCc1cccc(F)c1)NCc1ccc(F)cc1	-3	-0.1	i	?	0.66	0.5	-2.9	2	-3	-5.8
COc1ccc(CNC(=O)COC(=O)c2ccc(OCC3CCCO3)cc2)cc1 (centres undefined)	2	-0.2	i	·	0.68	-2.5	1.4	6	4	-0.2
CCOCC(=O)Nc1ccc(-c2cn3cccnc3n2)cc1	-4	0.2	·	-5	0.71	i	·	·	·	·

Entries shown so far that have a Cl atom (three):
SMILES	Beta cell apopt	A1 inh	FGF22 binding	T cruzi repl	E coli growth	UCH37 inh	MLL AF4-AF9 inh	rRNA inh HTS	rRNA inh HTS OD600	rRNA inh HTS RFP
O=C(C[n+]1cc(Br)cc2ccccc21)c1ccc(Cl)cc1	1	1.4	i	13	0.61	-1.6	3.2	-10	8	14
Cc1ccc(C(=O)NNC(=S)NC(=O)c2ccc(Cl)cc2)cc1	19	1.3	·	-6	0.63	0.8	·	·	·	·
Cc1ccc(NC(=S)NC(=O)C2CC2)cc1Cl	4	0.6	i	·	0.7	-2.0	2.9	-44	-74	-5.3

The listing picks up, starting two compounds before the break.
SMILES	Beta cell apopt	A1 inh	FGF22 binding	T cruzi repl	E coli growth	UCH37 inh	MLL AF4-AF9 inh	rRNA inh HTS	rRNA inh HTS OD600	rRNA inh HTS RFP
COc1ccc(CNC(=O)COC(=O)c2ccc(OCC3CCCO3)cc2)cc1 (centres undefined)	2	-0.2	i	·	0.68	-2.5	1.4	6	4	-0.2
CCOCC(=O)Nc1ccc(-c2cn3cccnc3n2)cc1	-4	0.2	·	-5	0.71	i	·	·	·	·
O=C(NCc1ccc(F)cc1)C(=O)NCC1OCCN1S(=O)(=O)c1ccc2c(c1)OCCO2 (centres undefined)	-5	1.3	i	19	0.7	1.9	-20	-3	-2	-3.0
Cc1sc2ncn(CC(=O)NCCN3CCOCC3)c(=O)c2c1S(=O)(=O)N1CCC(C)CC1	1	-0.2	i	-10	0.66	-1.0	-2.8	4	3	0.8
Cc1ccc(C(=O)CCC(=O)Nc2ccc(Cl)c(S(=O)(=O)Nc3cccc(Cl)c3)c2)cc1	-8	-0.6	·	9	0.74	1.9	·	·	·	·
O=C(CCS(=O)(=O)c1ccc2c(c1)NC(=O)CO2)NCCc1ccccc1	-6	-0.4	i	-5	0.68	4.5	-5.2	-1	-7	0.8
CSc1ccccc1OCc1cc(C(=O)N(C)Cc2c(C)n[nH]c2C)no1	1	0.0	·	-2	0.7	1.8	·	·	·	·
COc1cccc(-n2c(=O)c3sccc3n(CC(=O)NC3CCCCC3)c2=O)c1	-3	-0.4	i	-13	0.63	2.4	-0.2	5	15	0.2
CC1Oc2ccccc2N(CC(=O)Nc2ccc3c(c2)OCCO3)C1=O (centres undefined)	-2	-0.8	·	11	0.74	2.1	·	·	·	·
CCOc1ccc(Br)cc1C1C(C(=O)OC)=C(N)Oc2cc(N(C)C)ccc21 (centres undefined)	2	0.0	·	69*	0.68	-1.1	·	·	·	·
Cc1ccc(S(=O)(=O)NNC(=O)C(O)(c2ccccc2)c2ccccc2)cc1	-8	-1.3	i	-3	0.67	1.7	-4.4	-12	-14	-10
CCN(CC)C(=O)N1CCN(C(=O)c2ccc(C)cn2)CC1	1	-0.3	·	-9	0.75	-0.9	·	·	·	·
COc1ccc(OC)c(NC(=O)c2ccc(S(=O)(=O)N3CCN(C)CC3)cc2)c1	-4	-0.8	·	-2	0.69	1.8	·	·	·	·
CC(=O)c1cccc(NC(=O)C(C)OC(=O)/C=C/c2cccs2)c1 (centres undefined)	·	·	i	·	0.7	6.5	-0.1	-21	-24	21
COc1ccc(-n2c(Cc3ccccc3)nnc2SCC(=O)N2CCCc3ccccc32)cc1	2	-0.6	·	54	0.76	4.2	·	·	·	·
CSc1nnc(C)c(=O)n1COC(=O)COc1ccccc1	-8	0.7	·	-4	0.71	6.8	·	·	·	·
COc1ccccc1CNC(=O)COC(=O)COc1ccccc1Cc1ccccc1	-2	0.0	i	5	0.7	2.7	3.3	1	11	-1.7
CC(=O)c1cccc(N(C(=O)CNC(=O)c2ccco2)C(C(=O)NCc2ccco2)c2ccccc2)c1 (centres undefined)	-3	1.2	i	-8	·	·	0.1	0	-2	-4.3
CCOC(=O)c1ccccc1NC(=O)c1ccc(N(C)S(C)(=O)=O)cc1	-2	-0.2	i	4	0.7	4.5	-2.9	0	-1	3.0
C/C(CC(=O)Nc1ccc(C)cc1C)=N\NC(=O)C(C)C	-2	0.3	i	1	·	·	-18	-2	3	-2.2
COC(=O)c1cc(NC(=O)Cc2ccc(OC)c(OC)c2)cc(C(=O)OC)c1	1	-0.1	·	10	0.73	2.1	·	·	·	·
Cc1c(OCC(=O)OC(C)C)ccc2c3c(c(=O)oc12)CCC3	0	-0.6	·	-4	0.74	-14	·	·	·	·
Cc1ccc(C(=O)N/N=C\c2ccc(OC(=O)c3cccs3)cc2)cn1	-2	-0.4	i	-17	·	·	-1.4	8	9	1.3
